LANA-H2B inh: blocks KSHV LANA binding to histone H2A/H2B; Q9QR71; cell-free LANA-H2A/H2B peptide, fluorescence polarization; inhibition, % (concentration not given with the values); hit rate 0.6% among 320,000; in the data active = inhibition mostly above about 10%, no sharp cut-off; inactive = mostly below about 6.7%;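 note: stock transfer was 7.5 nL into about 10 µL; 0% = median of vehicle wells and 100% = median of positive control wells; one replicate is shown; the record names a cut of 25% in any replicate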
E coli growth: E. coli growth inhibition | AID 1053175 | Escherichia coli growth, OD600, 23 h; active compounds read low | OD600 absorbance (no concentration beside the values) | hit rate 0.21% among 330,000;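 active = OD600 absorbance below the run mean of sample wells minus 3.6 SD, in any replicate, cut at about 0.56 in these data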;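 note: stock transfer was 300 nL into about 60 µL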
UCH37 DUB inh: blocks the human deubiquitinase UCH37; Q9Y5K5; purified proteasome/UCH37, Ub-AMC cleavage fluorescence; inhibition, % (test concentration not listed); hit rate 0.33% among 330,000;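 active = mean of two replicates above 20%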;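 note: 0% = compound-free wells with enzyme and 100% = wells lacking proteasome; stock transfer was 100 nL into about 20 µL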
Target sequence (Q9Y5K5 whole entry, looked up): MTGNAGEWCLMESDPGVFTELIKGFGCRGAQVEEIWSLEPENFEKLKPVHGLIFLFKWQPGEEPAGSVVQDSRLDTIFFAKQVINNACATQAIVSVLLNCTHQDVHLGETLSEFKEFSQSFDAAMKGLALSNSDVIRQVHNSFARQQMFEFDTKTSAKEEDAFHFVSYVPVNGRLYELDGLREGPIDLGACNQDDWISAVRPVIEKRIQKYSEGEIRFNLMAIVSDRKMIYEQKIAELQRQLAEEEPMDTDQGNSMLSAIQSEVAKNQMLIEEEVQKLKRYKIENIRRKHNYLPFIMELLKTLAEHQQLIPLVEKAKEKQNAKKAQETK
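Material: human UCH37 enzyme supplied as purified proteasome complex. Measure: % inhibition of Ub-AMC cleavage fluorescence. Medium: pH 7.4 Tris-HCl (50 mM) with ovalbumin, ATP-MgCl2, DTT. Times: 30 min preincubation with enzyme, 25 min cleavage at room temperature. Detection: AMC fluorescence intensity at 355/460 nm.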
ALR H2O2 inh: inhibitors of human sulfhydryl oxidase ALR. P55789. purified ALR, DTT oxidation, H2O2 HRP-luminol luminescence. inhibition, % (concentration not given with the values). hit rate 3.8% among 290,000. AID 485317;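 active = mean and each replicate at 75% or more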;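 note: stock transfer was 7.5 nL into about 7.5 µL; 0% = neutral wells and 100% = wells with inactivated enzyme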
FGF22 binding: FGF22 (human) thermal shift binding; Q9HCT0; recombinant FGF22 thermal shift, SYPRO orange fluorescence; percent of sucrose octasulfate shift, DMSO zero; calls only at 9.99 µM; hit rate 1.5% among 340,000; AID 651658;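 active = melting point raised past a set limit in the mean and every replicate; three in four hits are not shown here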
Target sequence (Q9HCT0 whole entry, looked up): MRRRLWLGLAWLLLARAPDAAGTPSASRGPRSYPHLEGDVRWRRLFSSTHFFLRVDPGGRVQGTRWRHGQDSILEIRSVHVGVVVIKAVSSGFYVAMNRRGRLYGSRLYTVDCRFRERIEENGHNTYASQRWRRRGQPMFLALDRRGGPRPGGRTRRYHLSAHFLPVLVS
B2AR ag: agonists of human beta-2 adrenergic receptor inducing internalization. P07550. Am2.2-beta2AR cells, FAP receptor internalization, flow cytometry; reference of the scale not given here. response, % (no concentration beside the values). hit rate 0.43% among 340,000;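 active = response above a set limit, near 3 SD of response in nonfluorescent compounds, cut at about 42% in these data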;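 note: stock transfer was 100 nL into about 11 µL; a reference agonist was the positive control; negative values mostly stem from fluorescent compounds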
Target sequence (P07550 whole entry, looked up): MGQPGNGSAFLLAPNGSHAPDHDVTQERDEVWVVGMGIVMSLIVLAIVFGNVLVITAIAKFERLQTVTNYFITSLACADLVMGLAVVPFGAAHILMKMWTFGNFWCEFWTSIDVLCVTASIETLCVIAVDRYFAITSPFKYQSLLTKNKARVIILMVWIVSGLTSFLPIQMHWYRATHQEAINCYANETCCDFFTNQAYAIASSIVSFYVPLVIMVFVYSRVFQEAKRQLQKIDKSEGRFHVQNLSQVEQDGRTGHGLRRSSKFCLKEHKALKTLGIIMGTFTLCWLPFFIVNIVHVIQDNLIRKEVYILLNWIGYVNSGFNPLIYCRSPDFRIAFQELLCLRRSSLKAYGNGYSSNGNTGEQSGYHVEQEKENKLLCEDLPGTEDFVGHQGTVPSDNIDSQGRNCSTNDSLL
HNF4A DNA FP: change in binding of human HNF4 alpha to DNA; P41235; HNF4a-FITC DNA binding, fluorescence polarization, 1 h; activity change, % at 10 µM; hit rate 0.3% among 360,000; in the data active = activity change above about 30%, passing the limit was not always enough;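 note: controls were the assay level and a saturating level of protein; the project sought stronger binding though the title names inhibitors; some compounds called inactive have numbers as strong as hits; positive values seem to mean higher polarization but the record does not say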
Active calls of the source: *; i = inactive; . = no result given. Some of the compounds tested; rates above refer to the full screens.

Second line of a record: LANA-H2B inh	E coli growth	UCH37 DUB inh	ALR H2O2 inh	FGF22 binding	B2AR ag	HNF4A DNA FP
CCO[C@H]1OC(C(N)=O)=C[C@@H](C(C)(C)C)[C@@H]1CCCO
 : 0.0	.	0.8	0	i	2	-4.7
CC1CCC(NC(=O)CN2C(=O)NC3(CCCCC3C)C2=O)CC1 (stereo unspecified)
 : 3.0	0.68	1.0	12	i	-1	1.7
CN(C(=O)COC(=O)c1ccc(Cl)c(S(=O)(=O)NCc2ccccc2)c1)C1CCS(=O)(=O)C1 (stereo unspecified)
 : .	0.65	1.2	.	i	-11	5.6
COCCn1c(C(=O)N2CCCC2)cc2c1C[C@H]1CN(C(=O)c3ccccc3)[C@@](Cc3ccc(F)cc3)(C(=O)OC)[C@@H]21
 : 0.0	.	0.6	-17	i	.	.
CCOC(=O)c1ccc(Nc2nnc(C(C)(C)C)c(=O)[nH]2)cc1
 : -5.8	0.61	3.6	8	.	24	1.7
O=C(Cc1cccs1)N1CCN(S(=O)(=O)c2ccccc2)CC1
 : -1.4	0.67	1.0	-10	.	4	-2.8
Cn1nnnc1NCc1c(F)cccc1Cl
 : -4.8	0.67	0.3	-1	.	-26	-0.7
CN(c1ccc(C(=O)NCC2CCCO2)cc1)S(=O)(=O)c1ccccc1 (stereo unspecified)
 : 1.0	0.7	4.6	-6	.	13	-0.9
O=C(CN1CCOCC1)Nc1ncc(Cc2cccc(Cl)c2Cl)s1
 : -3.6	0.68	3.3	12	i	-6	4.0
Cc1nc(-c2ccccn2)nc(SCC(=O)N2CCOCC2)c1Cl
 : -1.7	0.61	1.4	1	i	-9	0.2
O=C(NCCc1ccccc1)c1ccc(CS(=O)Cc2cccc(Cl)c2)o1 (stereo unspecified)
 : 3.0	0.67	2.7	53	i	-4	-1.3
Cc1ccc(-n2c(Cn3ncc4ccccc4c3=O)n[nH]c2=S)cc1
 : 3.7	0.67	0.5	28	i	2	-0.3
CCOCCCNC(=O)C(=O)NCCCOCC
 : -3.0	0.68	2.5	-2	.	-9	2.6
CCOC(=O)CNC(=O)c1sc(NC(=O)c2cccc(F)c2)nc1C
 : 3.4	0.73	1.6	0	.	-4	0.3
Cc1cc(NC(=O)Cn2c(=O)n(Cc3ccccc3)c(=O)c3ccccc32)no1
 : 1.4	0.67	1.8	-3	.	-13	0.5
Cc1sc(N2C(=O)C3C4C=CC(C4)C3C2=O)c(C#N)c1C (stereo unspecified)
 : -5.2	0.69	4.6	.	i	-5	-0.9
Cc1ccc(-n2cc(CNC(C)c3cnn(C)c3)c(-c3ccc(F)cc3)n2)cc1 (stereo unspecified)
 : 1.8	0.69	1.9	-4	i	8	3.8
CC(=O)N/C(N)=N/c1nc2cc(C)ccc2o1
 : -4.0	0.6	3.0	-12	i	7	1.9
CCOCCCNCc1ccc(OCc2ccccc2Cl)cc1
 : -5.9	0.69	5.9	-31	i	-7	1.1
Cc1cc2occ(CC(=O)NNC(=O)c3ccccc3)c2cc1C
 : -1.2	0.69	1.9	-7	i	4	-0.3
Cc1ccc(N(CC(O)CN2CCCCC2)S(=O)(=O)c2ccccc2[N+](=O)[O-])cc1 (stereo unspecified)
 : -6.0	0.69	2.4	5	i	-6	-0.8
Cc1ccc2[nH]c3c(=O)n(CCC4=CCCCC4)cnc3c2c1
 : -1.3	0.7	1.8	-10	.	.	.
O=C(COC(=O)CC1CC2CCC1C2)NCc1ccc(F)cc1 (stereo unspecified)
 : -2.5	0.65	-0.6	-1	i	-3	5.0
C#CCOCCOCCOCCNc1nc(N2CCN(C(=O)[C@H](CCC(=O)O)n3cc([C@@H](N)CO)nn3)CC2)nc(N2CCN(C(=O)[C@H](CCC(=O)O)n3cc([C@@H](N)CCSC)nn3)CC2)n1
 : i	.	.	10	i	-1	-3.2
O=C1CC(N2CCN(c3ccc(F)cc3)CC2)C(=O)N1c1ccc(F)cc1 (stereo unspecified)
 : -0.5	0.67	3.0	22	i	-4	0.9
CCc1ccc(/C=C2/SC(=S)N(CCC(=O)Nc3cccc(C(=O)O)c3)C2=O)cc1
 : -5.2	0.7	4.8	7	i	11	6.3
CCOC(=O)NC(=O)c1cn(Nc2ccccc2)c(=O)[nH]c1=O
 : 7.7	0.69	2.5	8	i	4	1.6
CN(C)C(=O)C1CCC(=O)N1Cc1cccs1 (stereo unspecified)
 : 0.7	0.69	4.6	.	i	-4	12
COc1ccc2[nH]c3c(c2c1)CCN1C(=O)C(CC(=O)NC(C)(C)C)C[C@H](C(=O)N(C(C)C)C(C)C)[C@@]31C (stereo partly specified)
 : .	0.7	2.5	.	i	-4	1.0
Cn1ncc([N+](=O)[O-])c1C(=O)Nc1nccs1
 : -0.7	0.71	0.0	4	.	0	-3.3
COc1cc(OC)cc(C(=O)NCC(=O)N2CCCCC2)c1
 : 1.6	0.69	0.5	.	.	-1	-0.7
O=C(NNS(=O)(=O)c1ccc(Cl)cc1)c1cccc(S(=O)(=O)N2CCOCC2)c1
 : -0.7	0.68	0.2	2	i	0	4.0
Cc1ccc(-c2nnc(C)c(N3CC(C)OC(C)C3)n2)cc1 (stereo unspecified)
 : 6.1	0.8	3.4	-13	.	5	0.1
CCC(C)(C)n1nnnc1C(c1ccc(C)cc1)N(Cc1ccco1)Cc1cccs1 (stereo unspecified)
 : 1.8	0.7	1.8	-10	.	-4	3.5
Cc1ccc(N2CC(C(=O)N3CCC(C(=O)Nc4nncs4)CC3)CC2=O)cc1 (stereo unspecified)
 : -7.9	0.7	3.2	4	i	3	3.4
COc1ccc(Cl)c2sc(N(CCN(C)C)C(=O)CCS(=O)(=O)c3ccc(C)cc3)nc12
 : -1.8	0.63	7.4	3	i	14	2.5
Cc1ccc(C)c2[nH]c(=O)c(CN(CCN3CCOCC3)Cc3nnnn3CC3CCCO3)cc12 (stereo unspecified)
 : 1.5	0.68	-10	-3	.	7	0.8
NC(=O)c1nsc(C(=O)N(c2ccc3c(c2)OCCO3)C(C(=O)NCC2CCCO2)c2ccc(F)cc2)c1N (stereo unspecified)
 : 1.9	0.73	-13	-4	i	-3	1.1
CC1(C(=O)NC2CCCC2)CCC(=O)N1Cc1ccccc1 (stereo unspecified)
 : -2.7	0.69	3.1	-5	.	6	0.0
CC(C)(CNC(=O)c1ccc(S(=O)(=O)Nc2ccc(Cl)cc2)cc1)N1CCOCC1
 : -2.4	0.7	2.9	.	i	-2	-1.3
O=c1[nH]c2ccccc2nc1N1CCOCC1
 : -0.9	0.75	9.7	-19	.	-1	-0.9
O=C(CC(NS(=O)(=O)c1ccc(Cl)cc1)c1ccco1)NC1CCCC1 (stereo unspecified)
 : -0.6	0.73	5.1	0	.	-9	4.3
CCCOC(=O)/C(C(N)=NCc1ccccc1)=C(\O)OCCC
 : -0.4	0.69	3.2	-3	.	-7	1.6
C/C(=C\C(=O)c1ccc(Br)cc1)Nc1cccc(Cl)c1
 : -1.8	0.73	1.4	0	.	.	-1.1
Cc1cnc(C(=O)OCC(=O)c2ccc[nH]2)cn1
 : -3.4	0.65	2.3	.	i	-5	-5.2
CC(C(=O)NCC1CCCO1)N1C(=O)C2C3CC(C(Br)C3Br)C2C1=O (stereo unspecified)
 : -2.8	0.68	2.9	-3	i	3	-0.2
CCc1ccc(NC(=O)c2cc(-c3ccc4c(c3)OCO4)on2)cc1
 : -0.9	0.72	-9.7	.	i	4	0.0
CCN(CC)CCn1c2ccccc2c2nc3ccccc3nc21
 : 2.6	0.69	5.9	-25	i	-3	-8.6
CNc1cc(NS(=O)(=O)c2ccc(N)cc2)nc(NC)n1
 : 0.3	0.64	1.4	5	i	-4	-0.3
CCn1cc(C(C)(C)C)c(C#N)c1NC(C)=O
 : -6.0	0.69	1.6	-6	.	6	0.3
Cc1ccccc1-c1nnc(SCC(=O)NC2CCCC2)n1C
 : -0.9	0.68	0.6	-2	i	1	5.0
COc1ccc(NC(=O)Nc2cccc3c2O[C@H](CN(C)S(=O)(=O)c2ccccc2)[C@@H](C)CN([C@H](C)CO)C3=O)cc1
 : 5.7	.	4.5	22	i	-5	1.0
COc1ccc(-c2nc(S(=O)(=O)c3ccccc3)c(NCCCN3CCOCC3)o2)cc1
 : -0.1	0.72	3.4	10	i	-4	0.5
CCN1CCN(C(=O)c2ccccc2Nc2ccc(SC(F)F)cc2)CC1
 : -6.6	0.7	2.9	90*	i	-4	-1.2
O=C(O)c1n[nH]c2ccccc12
 : 0.5	0.77	4.7	-3	.	1	0.1
O=C1COc2ccc(S(=O)(=O)N3CCN(c4cccc(C(F)(F)F)c4)CC3)cc2N1
 : -2.5	0.67	6.5	-3	i	0	-0.8
Cc1ccc(NC(=O)c2ccco2)c(NC(=O)C2CCCO2)c1 (stereo unspecified)
 : -1.1	0.73	3.2	5	i	-12	3.1
COC(=O)c1cccc(COC(=O)c2ccc(CS(=O)(=O)c3ccc(C)cc3)cc2)c1
 : -1.1	0.74	-2.8	-4	.	0	0.1
CC(=O)OCC=C1CCC2C3CC(C)C4=CC(=O)CCC4(C)C3C(O)CC12C (stereo unspecified)
 : .	0.7	4.7	.	i	8	-5.8
CCCCCC(=O)N1CCN(c2ccc(C(C)=O)cc2F)CC1
 : 0.9	0.76	2.1	8	i	27	-1.3

Filtered by structure, the compounds so far containing a thiophene ring, fused or not
Second line of a record: LANA-H2B inh	E coli growth	UCH37 DUB inh	ALR H2O2 inh	FGF22 binding	B2AR ag	HNF4A DNA FP
O=C(Cc1cccs1)N1CCN(S(=O)(=O)c2ccccc2)CC1
 : -1.4	0.67	1.0	-10	.	4	-2.8
Cc1sc(N2C(=O)C3C4C=CC(C4)C3C2=O)c(C#N)c1C (stereo unspecified)
 : -5.2	0.69	4.6	.	i	-5	-0.9
CN(C)C(=O)C1CCC(=O)N1Cc1cccs1 (stereo unspecified)
 : 0.7	0.69	4.6	.	i	-4	12
CCC(C)(C)n1nnnc1C(c1ccc(C)cc1)N(Cc1ccco1)Cc1cccs1 (stereo unspecified)
 : 1.8	0.7	1.8	-10	.	-4	3.5

Further compounds follow.
Second line of a record: LANA-H2B inh	E coli growth	UCH37 DUB inh	ALR H2O2 inh	FGF22 binding	B2AR ag	HNF4A DNA FP
O=C(CCSc1nc(-c2ccco2)cc(C(F)(F)F)n1)N1CCN(c2ccccn2)CC1
 : -8.0	0.68	1.4	-7	.	-16	4.0
COc1ccc(-c2ccc(CCC(=O)O)n2NC(=O)c2ccc(O)cc2)cc1
 : 1.3	0.67	3.5	98*	i	1	1.2
COC(=O)c1ccc(CN2CCCC(C(=O)c3cc(F)ccc3OC)C2)cc1 (stereo unspecified)
 : 2.0	0.62	-2.5	.	i	4	3.7
Cc1ccc(Cn2ccc(NC(=O)c3nn(C)cc3[N+](=O)[O-])n2)cc1
 : 0.9	0.67	4.4	-4	i	-34	-0.1
COc1cc(/C=N/NC(=O)c2ccc(NC(=O)C3CC3)cc2)ccc1OC(C)=O
 : 1.8	.	.	-10	i	-1	0.6
CCOc1ccc(NC(=O)CN(C)C(=O)CCCc2nc3ccccc3c(=O)[nH]2)cc1OCC
 : -5.4	0.7	-1.5	2	i	-9	-1.2
CN1CCN(S(=O)(=O)c2ccc(Cl)c3ccccc23)CC1
 : 0.3	0.67	2.3	-6	i	1	1.1
CCCCCCCCCOC(=O)C[n+]1csc(CCO)c1C
 : 5.5	0.68	-0.8	1	.	4	-1.0
Cc1ccsc1C(=O)OCC(=O)c1cc(C)n(CC2CCCO2)c1C (stereo unspecified)
 : -2.9	0.72	2.4	-2	.	3	-0.1
CCN1C(=O)[C@H]2[C@@H](c3ccc(-c4ccc(F)cc4)c(OC)c3)N[C@@](CC(C)C)(C(=O)OC)[C@H]2C1=O
 : -0.5	.	.	-1	i	.	.
CN(Cc1nccn1C)C(=O)c1ccc(OC2CCN(CCc3ccccc3)CC2)cc1
 : 3.7	0.72	1.8	-5	i	-17	7.1
CC1=NN(C(=O)CCc2ccc3c(c2)OCO3)C(O)(C(F)(F)F)C1 (stereo unspecified)
 : 2.9	0.72	1.3	4	i	6	0.5

Screening results (PubChem)
